Bioassay records from PubChem BioAssay.
Rango-impB inh: prevents formation of the Rango-importin beta complex; AID 540263; Potency, µM (series often up to 92.2 µM), inactives show at the highest dose inhibition of complex formation; Rango CFP/YFP FRET sensor + importin beta, 45 min; Q14974; 0.031% of 340,000 active; active = rising FRET ratio curve, often small or poorly fitted; inconclusive = mostly compound fluorescence or quenching in the first reads; inactive = flat curves in all reads;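 also: potency is read from the fitted curve at half-maximal effect; 0% = DMSO wells and 100% = buffer wells lacking importin beta; nearly all actives have a fitted effect of over 15% in size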
Target sequence (Q14974 whole entry, looked up): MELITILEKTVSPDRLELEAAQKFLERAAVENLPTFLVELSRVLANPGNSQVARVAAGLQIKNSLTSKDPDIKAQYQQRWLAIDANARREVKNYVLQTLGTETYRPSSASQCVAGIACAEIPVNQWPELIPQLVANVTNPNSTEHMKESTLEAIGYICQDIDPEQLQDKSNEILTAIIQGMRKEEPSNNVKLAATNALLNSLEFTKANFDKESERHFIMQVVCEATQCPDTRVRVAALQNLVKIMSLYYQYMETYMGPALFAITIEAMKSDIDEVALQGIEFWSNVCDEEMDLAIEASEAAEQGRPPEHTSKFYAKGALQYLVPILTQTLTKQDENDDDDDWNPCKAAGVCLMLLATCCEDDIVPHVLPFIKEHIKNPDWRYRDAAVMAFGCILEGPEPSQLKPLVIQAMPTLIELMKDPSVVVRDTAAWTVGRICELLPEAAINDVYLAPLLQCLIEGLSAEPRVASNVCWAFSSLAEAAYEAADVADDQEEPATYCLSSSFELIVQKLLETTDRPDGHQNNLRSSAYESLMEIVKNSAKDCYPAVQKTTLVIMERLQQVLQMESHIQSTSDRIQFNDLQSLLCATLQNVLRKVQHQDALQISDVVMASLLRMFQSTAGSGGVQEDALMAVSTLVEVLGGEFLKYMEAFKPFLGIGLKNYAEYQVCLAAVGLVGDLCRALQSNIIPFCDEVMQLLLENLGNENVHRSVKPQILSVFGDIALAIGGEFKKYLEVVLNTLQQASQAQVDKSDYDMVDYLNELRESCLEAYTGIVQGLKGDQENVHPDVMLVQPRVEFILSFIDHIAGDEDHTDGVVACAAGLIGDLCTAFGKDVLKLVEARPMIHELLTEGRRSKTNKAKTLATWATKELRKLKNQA
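Inhibition scored from the CFP 486 nm/YFP 530 nm FRET ratio 45 min after adding 0.125 microM importin beta to 50 nM Rango biosensor preincubated 5 min with compound (room temperature, PBS with DTT, Tween-20, BSA). No-importin wells as positive control.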
miR-21 reporter: miR-21 reporter, rising signal. HeLa miR-21 FLuc reporter, luciferase, 48 h. Potency, µM (series often up to 38.3 µM), for the others: at the top dose reporter change, positive = more light. 340,000 tested, under 10 active. AID 2288; active = well fitted rising curve with a large enough effect; inconclusive = small, poorly fitted or top-dose-only effect; inactive = no such curve, though single readings can be large or run the other way;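 also: % of control where 0% means no effect; miR-21 action dims this reporter so a rising signal means less miR-21 action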
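HeLa cells endogenously expressing miR-21, stably carrying CMV-driven firefly luciferase with a downstream miR-21 binding site, 2000 cells/well. Titrations up to approximately 40 uM, 48 hours; luciferase luminescence read.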
GLA inh pH 4.5: blocks human alpha-galactosidase A at pH 4.5 | P06280 | purified enzyme, 4-MU-alpha-Gal fluorescence, pH 4.5 | activity change, negative = inhibition, % at 105 µM | 230,000 tested, under 10 active; inconclusive = small, poorly fitted or top-dose-only inhibition, or a rising curve; inactive = flat fitted curve, though single readings scatter; no compound was filed as active;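 also: 0% = full activity with enzyme and -100% = basal without enzyme; dose as in the result columns while the protocol names 77 µM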
Rango release inh: inhibitors of RanGTP-induced Rango-importin beta complex dissociation; O95149+P62826; Biochemical FRET Rango-importin beta, RanGTP-induced dissociation; Potency, µM (top dose mostly 46.1 µM), for the others: top-dose activity change, negative = inhibition; 0.071% of 340,000 active; active means falling FRET ratio curve, often poorly fitted, with flat reads before Ran was added; inconclusive means other falling curves, or compound fluorescence or quenching; inactive means flat or rising ratio curve;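 also: potency is read from the fitted curve at half-maximal effect; % of control where 0% means no effect; nearly all actives have a fitted effect of over 45% in size; -100% = wells without RanGTP and RCC1; the record marks most hits as doubtful in a second field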
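Compounds preincubate 5 min with complex of recombinant Rango and importin beta in PBS with 1 mM DTT. Ran (0.6 uM) loaded with 2 mM GTP plus 0.2 uM RCC1 starts dissociation; FRET is recorded 45 min later.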
* = called active by the depositor; ? = inconclusive; . = not tested or not shown; & = joins results of further samples; [ ] = another dose, or the depositor's remark.

Rango-impB inh	miR-21 reporter	GLA inh pH 4.5	Rango release inh	SMILES
?	-7%	.	4%	COc1ccc(NC(=O)N2CCCc3cc(C)ccc32)c(OC)c1
0.1%	1%	-3	-6%	CC(=O)N(Cc1cccs1)Cc1cc2cc(C)c(C)cc2nc1Cl
5.2%	-9%	-1	9%	O=C(NCN1CCN(c2ccccc2F)CC1)c1ccccc1
-2.0%	-7%	-2	1%	COc1ccc(NC(=O)c2ccc(-c3ccc([N+](=O)[O-])cc3)o2)cc1
4.6%	.	.	-5%	O=C(NN=C1CCCCC1)Nc1ccccc1Cl
-4.2%	-2%	-6	-7%	CCOC(=O)N1CCN(C(=O)Cn2nc(-c3ccc(Cl)cc3)ccc2=O)CC1
-0.9%	.	.	0%	CC(C)[C@H](NC(=O)c1cccc(S(=O)(=O)N2CCOCC2)c1)C(=O)OCC(=O)Nc1cccc(Br)c1
-0.9%	.	.	-18%	O=C(CC1SC(N2CCCC2)=NC1=O)Nc1ccc(C(=O)Nc2ncccc2O)cc1 (centres undefined)
1.6%	-2%	.	8%	CCc1cc(=O)oc2c(C)c(OC(C)C(=O)N3CC[C@@]4(O)CCCC[C@H]4C3)ccc12 (some centres undefined)
2.0%	16%	-4	-6%	O=C(Nc1nc2c(s1)CCCC2)c1ccc(S(=O)(=O)N2CCCc3ccccc32)cc1
.	-4%	4	.	Cc1cc(C)nc(-n2nc(C)c3c(C)c(C)c(C)nc32)n1
0.4%	0%	1	-3%	CC(=O)c1c(N2CCOCC2)nc(=S)n(-c2ccc([N+](=O)[O-])cc2)c1C
1.7%	2%	2[21.1 µM]	-8%	Cc1ccc(-n2c(=O)c3ccccc3n(CC(=O)C(C)(C)C)c2=O)cc1
-0.3%	1%	2	32%	COc1ccc2c(CCNC(=O)Nc3ccccc3)c[nH]c2c1
1.1%	-19%	-2	-6%	Nc1sc(-c2ccccc2)cc1C(=O)N/N=C/c1ccc(Cl)cc1

Entries shown so far that have a carbonyl joined to an NH by a bond outside any ring (9):
Rango-impB inh	miR-21 reporter	GLA inh pH 4.5	Rango release inh	SMILES
?	-7%	.	4%	COc1ccc(NC(=O)N2CCCc3cc(C)ccc32)c(OC)c1
5.2%	-9%	-1	9%	O=C(NCN1CCN(c2ccccc2F)CC1)c1ccccc1
-2.0%	-7%	-2	1%	COc1ccc(NC(=O)c2ccc(-c3ccc([N+](=O)[O-])cc3)o2)cc1
4.6%	.	.	-5%	O=C(NN=C1CCCCC1)Nc1ccccc1Cl
-0.9%	.	.	0%	CC(C)[C@H](NC(=O)c1cccc(S(=O)(=O)N2CCOCC2)c1)C(=O)OCC(=O)Nc1cccc(Br)c1
-0.9%	.	.	-18%	O=C(CC1SC(N2CCCC2)=NC1=O)Nc1ccc(C(=O)Nc2ncccc2O)cc1 (centres undefined)
2.0%	16%	-4	-6%	O=C(Nc1nc2c(s1)CCCC2)c1ccc(S(=O)(=O)N2CCCc3ccccc32)cc1
-0.3%	1%	2	32%	COc1ccc2c(CCNC(=O)Nc3ccccc3)c[nH]c2c1
1.1%	-19%	-2	-6%	Nc1sc(-c2ccccc2)cc1C(=O)N/N=C/c1ccc(Cl)cc1

Next section.
Rango-impB inh	miR-21 reporter	GLA inh pH 4.5	Rango release inh	SMILES
-1.9%	-11%	.	?	Cc1c(C)c2ccc(OC(C)C(=O)NCCN3CCOCC3)c(C)c2oc1=O (centres undefined)
?	-3%	3	2%	Cc1nc(NS(=O)(=O)c2ccccc2)sc1NC(=O)OCCN(C)C
-1.0%	-6%	.	1%	Cc1nn(Cc2ccc(C(=O)N/N=C/c3ccncc3)o2)c(C)c1Cl
0.5%	-22%	4	-6%	O=C(COc1ccccc1)Nc1nnc(C23CC4CC(CC(C4)C2)C3)s1
2.9%	-5%	-12	11%	CC(=O)N1c2ccccc2C(C)(c2ccccc2)CC1(C)C (centres undefined)
-5.1%	-1%	-5	8%	O=C(c1ccccc1)c1nccn1-c1ccc(Cl)nn1
2.1%	9%&6%	.	22%	Cc1cc(NC(=O)CSc2nc3c([nH]c4ccccc43)c(=O)n2-c2ccccc2F)no1
0.3%	0%	3	-13%	Cc1ccccc1NC(=S)N1CCN(C(=O)c2ccco2)CC1
-2.1%	11%	-5	-20%	COc1ccc(Cl)cc1Nc1nc(-c2sc(NC(=O)c3ccco3)nc2C)cs1
3.5%	1%	.	-7%	CCOC(=O)N1CCN(C(=O)CNC(=O)c2ccc(Cl)cc2)CC1
.	-2%	-1	.	Clc1cccc(-c2nn3c(-c4ccncc4)nnc3s2)c1
.	1%	-3	.	CCCCCCCCCCC(=O)NNC(=O)c1c(O)c2ccccc2n(CC)c1=O
-0.3%	.	.	0%	COc1ccc(S(=O)(=O)Nc2cc(Sc3ncn[nH]3)c(O)cc2C)cc1
1.2%	-5%	-2	-4%	Cc1ccc(S(=O)(=O)CC(c2ccccc2)N2CCOCC2)cc1 (centres undefined)
11%	?	-22	-5%	Cc1sc(NC(=O)CN2CCOCC2)nc1-c1ccc2c(c1)CCN2S(=O)(=O)c1ccccc1
?	.	.	?	COc1cccc(C#Cc2c(C=O)n(C)c3ccccc23)c1
.	1%	-4	.	O=C(O)C1CCCN1S(=O)(=O)c1cccs1 (centres undefined)
-1.1%	-4%	-27	18%	C/C(=N/NC(=O)CNC(=O)c1ccccn1)c1cccc([N+](=O)[O-])c1
-1.2%	-3%	0	-4%	CCOC(=O)C(C)Sc1nnc(NC(=O)c2ccc3c(c2)OCO3)s1 (centres undefined)
-0.4%	-2%	1	-2%	Cc1ccc(NC(=O)c2cccc(OCc3c(C)noc3C)c2)c(C)c1
0.5%	-16%	-4	-2%	N#Cc1nc(Cc2cccc3ccccc23)oc1NCCCN1CCOCC1
0.1%	-5%	-4	-21%	O=S(=O)(/N=C(/Nc1ccccc1)c1ccccc1)c1cccs1
0.0%	.	.	20%	O=C(NCc1ccncc1)C1CCN(S(=O)(=O)c2ccccc2)CC1
-1.7%	-1%	.	33%	COc1ccc(C(=O)Nc2ccc(C(=O)Nc3cccnc3)cc2)cc1
?	0%	-4	2%	COc1cccc(CN(C)C(=O)c2ccc3nccnc3c2)c1
-3.5%	-35%	0	9%	CCCCc1noc2c1/C(=N\O)CC(c1ccccc1)C2 (centres undefined)
1.0%	.	.	13%	C=CC(=O)Nc1ccc(CN2C(=O)N(c3c(Cl)c(OC)cc(OC)c3Cl)Cc3cnc(NCCCCN(CC)CC)nc32)cc1
0.8%	14%	6	-2%	COc1cnc(-c2ccccn2)nc1N(C)C
-0.5%	14%	.	25%	CCCCOP(=O)(OCCCC)C(Nc1ccc(C(=O)OCC)cc1)c1ccncc1 (centres undefined)
-0.1%	5%	-11	13%	CC(C)CNC(=O)c1cccc(NC(=O)CSc2ccc(Cl)cc2)c1

Full records, looked up by structure. Order of values: Rango-impB inh, miR-21 reporter, GLA inh pH 4.5, Rango release inh
C=CC(=O)Nc1ccc(CN2C(=O)N(c3c(Cl)c(OC)cc(OC)c3Cl)Cc3cnc(NCCCCN(CC)CC)nc32)cc1 across the screens: 1.0%, ., ., 13%
O=S(=O)(/N=C(/Nc1ccccc1)c1ccccc1)c1cccs1 across the screens: 0.1%, -5%, -4, -21%

The results go on:
Rango-impB inh	miR-21 reporter	GLA inh pH 4.5	Rango release inh	SMILES
0.8%	.	.	1%	c1ccc(COc2ncnc3c2ncn3CCCNCC2CCCO2)cc1 (centres undefined)
-2.8%	-18%	-4	6%	O=c1c2c([nH]c3ccccc13)CCCC2
2.8%	-19%	.	-12%	O=C(CNC(=O)c1cccc(F)c1)N/N=C/c1cccs1
1.4%	18%	4	8%	O=C1c2cccc(OCc3ccc(F)cc3)c2CCN1Cc1ccccc1
1.1%	-4%	.	21%	CN(C)S(=O)(=O)c1ccc2c(c1)nc(CCC(=O)NCCc1ccc(Cl)cc1)n2C
1.0%	3%	1	1%	O=C(CC1(O)C(=O)N(Cc2ccccc2)c2ccccc21)c1ccncc1 (centres undefined)
3.7%	-14%	7	-13%	Clc1cccc2c1CCN(Cc1nc(-c3cnccn3)no1)C2
5.7%	0%	2	2%	C=CCN(C(=O)CSc1nc2c(sc3ccccc32)c(=O)n1CCN(CC)CC)c1ccccc1
2.5%	-68%	11	-1%	Cc1cc(C)nc(S/C=C/C(=O)c2ccccc2F)n1
1.1%	-1%	-3	0%	N#Cc1c(NC(=O)CSc2nnnn2C2CCCC2)sc2c1CCCC2
-3.5%	-3%	.	-5%	COc1ccc(CCNS(=O)(=O)c2ccccc2[N+](=O)[O-])cc1OC
0.7%	-35%	4	11%	O=C(Nc1ccc(Cl)c(Cl)c1)c1ccncc1
-1.2%	24%	-1	1%	O=C(O)C1CC=CCC1C(=O)Nc1ccc(S(=O)(=O)N2CCCc3ccccc32)cc1 (centres undefined)
0.7%	.	.	-6%	O=C1CC2(CCN(C(=O)c3cccc(Cl)c3)CC2)Oc2ccccc21
2.9%	-33%	-2	-6%	CC(=O)Nc1ccc(SCC(=O)c2cc(C)n(CC(F)(F)F)c2C)cc1

Some of these compounds in order of SMILES length, lowest first.
Rango-impB inh	miR-21 reporter	GLA inh pH 4.5	Rango release inh	SMILES
2.5%	-68%	11	-1%	Cc1cc(C)nc(S/C=C/C(=O)c2ccccc2F)n1
-0.4%	-2%	1	-2%	Cc1ccc(NC(=O)c2cccc(OCc3c(C)noc3C)c2)c(C)c1
0.7%	.	.	-6%	O=C1CC2(CCN(C(=O)c3cccc(Cl)c3)CC2)Oc2ccccc21
-1.9%	-11%	.	?	Cc1c(C)c2ccc(OC(C)C(=O)NCCN3CCOCC3)c(C)c2oc1=O (centres undefined)
1.1%	-4%	.	21%	CN(C)S(=O)(=O)c1ccc2c(c1)nc(CCC(=O)NCCc1ccc(Cl)cc1)n2C

Additional records:
Rango-impB inh	miR-21 reporter	GLA inh pH 4.5	Rango release inh	SMILES
0.7%	-1%	8	3%	CC(C)(C)NC(=O)CN(CCc1ccccc1)C(=O)c1csnn1
?	-4%	-1	?	COc1ccc(-c2cc(C(F)(F)F)n3ncc(C(=O)N(C)Cc4ccccc4)c3n2)cc1
-3.4%	0%&0%	.	2%	COc1ccc(CCNC(=O)CCS(=O)(=O)c2ccc3c(c2)oc(=O)n3C)cc1OC
2.2%	5%	2	5%	C=CCn1c(C)nnc1SCC(=O)N1CCN(S(=O)(=O)c2ccccc2)CC1
-0.3%	.	.	1%	O=C(O)c1ccc(/C=N/NC(=O)c2cc3ccccc3cc2O)cc1
-1.4%	-2%	0	11%	CCc1ccc(C(=O)NC(CCSC)C(=O)O)cc1 (centres undefined)
-3.1%	-3%	-3	1%	COc1ccc(-c2ocnc2C(=O)N2CCN(Cc3cccnc3)CC2)cc1
-0.6%	-1%	-10	-27%	O=C(N/N=C/c1cc(Br)c(O)c(Br)c1)c1cccc(C(F)(F)F)c1
-0.2%	.	.	-9%	COc1ccc(C(=O)O)cc1S(=O)(=O)NC1CCN(Cc2ccccc2)CC1
?	-34%	-7	?	CCN(CC)c1ccc(/C=N/NC(=O)c2ccco2)c(O)c1
.	-1%	5	.	O=C1Nc2ccccc2N2CCCC12 (centres undefined)
-0.1%	-2%	-1	-3%	CCCNC(=O)N1CCN(S(C)(=O)=O)CC1
3.4%	7%	.	-8%	O=C(CCN1C(=O)/C(=C\c2cccc(Br)c2)SC1=S)NCCCN1CCOCC1
-4.9%	0%	1	-4%	O=C(Nc1ccccn1)c1cc(-n2cnnc2)ccc1Cl

Only part of the results is shown, so the mix of outcomes need not match the whole.
